Source: PubChem (National Center for Advancing Translational Sciences (NCATS))
A647 fluor – qHTS Assay for Spectroscopic Profiling in A647 Spectral Region; Compound fluorescence, A647 channel (570/671 nm), Tris buffer; 59,000 tested, under 10 active; max dye-equivalent concentration, M; active means above 1 µM dye equivalent; inconclusive means 0.1 to 1 µM; inactive means 0.1 µM or less;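 note: values scaled relative to a standard on each plate; highest value over a series up to 38 µM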
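Spectral profiling of library compounds in pH 8.0 Tris: 15 min room-temperature incubation, single ex/em pair (570/671 nm), response normalized to Alexa 647 equivalents.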
AID923 – qHTS Assay for Allosteric/Competitive Inhibitors of Caspase-1: Spectroscopic Profiling in AFC Spectral Region. AID 923, 2007. 1.1% of 75,000 active. Potency, µM (series often up to 57.5 µM), inactives show at the top dose fluorescence increase, usual class: activators. compound fluorescence, AFC spectral region (405/520 nm); almost no hit is shown here; active = well fitted activation curve with a large enough effect; inconclusive = small, poorly fitted or top-dose-only effect;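 note: potency is the fitted concentration of half-maximal effect; 0% is about no effect; scaled to a free AFC standard on each plate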
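Baseline compound fluorescence (AFC region, 405 nm ex/520 nm em) taken from the intercept of kinetic reads with 50 nM caspase-1 and 5 uM Ac-WEHD-AFC; normalized to an on-plate AFC standard curve; compounds titrated up to 57 uM.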
A488 fluor – qHTS Assay for Spectroscopic Profiling in A488 Spectral Region; 0.1% of 59,000 active; max dye equivalency, M; compound autofluorescence, A488 spectral region, dye equivalency; stronger effect = higher value; active = above 10 nM dye equivalent; inconclusive = 1 to 10 nM; inactive = 1 nM or less; about half of its hits are not listed in these tables;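 note: highest value over a series up to 38 µM; compound alone in buffer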
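Read-out: relative fluorescence at 480/540 nm, expressed as Alexa 488 dye-equivalent concentration from a six-point A488 standard included per plate. Conditions: 100 mM Tris, pH 8.0; 15 min incubation, room temperature.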
TSHR agonist – qHTS Assay for Agonists of the Thyroid Stimulating Hormone Receptor | Thyrotropin receptor (Homo sapiens), P16473 | HEK293-CNG-TSHR cells (CNG channel as cAMP sensor), membrane potential dye, cAMP | Potency, µM (top dose mostly 57.1 µM), for the others: at the highest dose activation, most hits filed as activators | 0.48% of 73,000 active; active = well fitted activation curve of enough size with the parental cells flat; inconclusive = any curve in the parental cells; inactive = parental cells flat and receptor cells flat or falling; note: potency is the fitted concentration of half-maximal effect; % of control where 0% means no effect; weak receptor curves with flat parental cells got no call and are not listed
Target sequence (P16473 whole entry, looked up): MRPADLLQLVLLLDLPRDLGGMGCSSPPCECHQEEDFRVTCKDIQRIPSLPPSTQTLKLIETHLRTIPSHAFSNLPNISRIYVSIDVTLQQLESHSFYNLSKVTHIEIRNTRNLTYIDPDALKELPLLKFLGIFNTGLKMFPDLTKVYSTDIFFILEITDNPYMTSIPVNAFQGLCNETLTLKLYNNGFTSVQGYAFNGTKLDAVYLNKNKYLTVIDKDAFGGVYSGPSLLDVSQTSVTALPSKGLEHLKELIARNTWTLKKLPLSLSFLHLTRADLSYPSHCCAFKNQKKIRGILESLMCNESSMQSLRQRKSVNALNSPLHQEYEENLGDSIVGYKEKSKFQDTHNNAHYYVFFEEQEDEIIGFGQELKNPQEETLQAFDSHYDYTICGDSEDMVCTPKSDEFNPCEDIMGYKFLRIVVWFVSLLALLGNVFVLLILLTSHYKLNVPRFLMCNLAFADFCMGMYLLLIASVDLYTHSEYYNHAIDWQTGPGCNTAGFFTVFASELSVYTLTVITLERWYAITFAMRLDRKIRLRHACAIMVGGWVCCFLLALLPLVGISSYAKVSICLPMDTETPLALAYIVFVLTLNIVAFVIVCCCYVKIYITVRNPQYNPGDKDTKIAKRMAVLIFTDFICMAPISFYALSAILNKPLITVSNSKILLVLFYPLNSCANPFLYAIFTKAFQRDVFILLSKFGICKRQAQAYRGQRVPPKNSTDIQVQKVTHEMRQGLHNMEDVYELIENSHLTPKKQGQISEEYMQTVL
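HEK 293 cells stably expressing TSHR and a cAMP-gated CNG channel; parental CNG-only cells as counterscreen. Cells preloaded 60 min with membrane potential dye plus 100 uM RO 20-1724, then compound 30 min; fluorescence read at 590 nm.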
Resorufin fluor – qHTS Assay for Spectroscopic Profiling in Resorufin Spectral Region. Compound fluorescence, resorufin region 547/598 nm, buffer; stronger effect = higher value. max dye-equivalent concentration, M. 0.04% of 59,000 active; active = above 10 nM dye equivalent; inconclusive = 1 to 10 nM; inactive = 1 nM or less; a few of its hits are not listed in these tables; note: highest value over a series up to 38 µM
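Read-out: intrinsic compound fluorescence at ex 547/em 598 nm after 15 min at RT in pH 8.0 Tris (100 mM). Values expressed as resorufin-equivalent concentration from per-plate standard series.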
* marks the source's active call; other numbers are inactive results; i = inactive; ? = inconclusive; . = no result given; [ ] = dose if it differs, or a comment. Only part of the results is shown (hit frequency here may not be typical).

structure,Resorufin fluor,A488 fluor,A647 fluor,TSHR agonist,AID923
CCOc1ccc(S(=O)(=O)NCCC(=O)OC(C)C(=O)N2CCc3ccccc32)cc1 (configuration not stated),i,i,1e-09,?,-1.1%
CCn1c(NC(=O)Nc2ccccc2OC)nc2ccccc21,i,i,3.9e-08,7%[11.4 µM],0.0%
CCCNC(=O)OC[C@@H]1O[C@H](CCO/N=C(\C)CCN2CCc3nc(-c4ccccc4)c(-c4ccccc4)cc3C2)C=C[C@@H]1Oc1ccc(OC)cc1,.,.,.,-5%[11.4 µM],-3.9%[11.5 µM]
CCCCn1c(=O)[nH]c(=O)c2c1nc(-c1ccncc1)n2CCOC,i,i,1.6e-09,5%[11.4 µM],0.5%
CCc1cccc(CC)c1N(COC)C(=O)Cn1nnc2ccccc21,i,i,1e-09,.,.
CCn1c2ccccc2c2cc(C3C(C#N)=C(C)NC(C)=C3C#N)ccc21,i,i,6.9e-09,18%,10%
CC1(C)CC(=O)C2=C(C1)OC(N)=C(C#N)C21CCN(C(=O)OCc2ccccc2)CC1,i,i,1.8e-08,23%,1.4%
Cc1ccc(S(=O)(=O)N(C)CCCC(=O)NCc2ccc3c(c2)OCO3)cc1,i,i,6.2e-09,6%,-1.7%
Cc1nc2ccc(-n3ccc(=O)cc3)cc2s1,i,i,1e-08,8%,-1.2%
CCOc1ccccc1N1CCN(S(=O)(=O)c2cccc3nsnc23)CC1,i,i,2.7e-08,19%,-0.9%
COC(=O)c1ccccc1NC(=O)NCc1ccccn1,i,i,3.5e-08,1%,0.4%
CCOC(=O)c1cccc(NC(=O)CCS(=O)(=O)c2cccc3nsnc23)c1,i,i,1.1e-09,0%,0.8%
CC(C)(C)NC(=O)c1ccc(NC(=O)C2COc3ccccc3O2)cc1 (configuration not stated),i,i,2.7e-08,27%,-0.4%
CCOC(=O)N1CCN(C(=O)CSc2nc3c(c(=O)n2-c2ccccc2OC)SCC3)CC1,i,i,5.8e-09,1%,-0.9%
Cc1c(NC(=O)CC2CC(C)OC2=O)c(=O)n(-c2ccccc2)n1C (configuration not stated),i,i,8.4e-09,-6%,-1.4%
CN(C(=O)COC(=O)c1nc(-c2ccccc2)n(-c2ccccc2)n1)C1CCS(=O)(=O)C1 (configuration not stated),i,i,2e-08,-1%,0.6%
C=CCn1c(COc2ccc(Cl)cc2)nnc1SCC(=O)NCC(=O)OCC,i,i,3.2e-08,0%,0.0%
Cc1ccc(S(=O)(=O)N(C)CC(=O)N2CCc3ccccc32)cc1,i,i,3.7e-09,40%,0.6%
CCOC(=O)c1cnn(-c2nc(CC)nc3sc4c(c23)CCC4)c1N,i,i,1.7e-08,0%,-0.9%
O=C(CN1CCN(Cc2ccc3c(c2)OCO3)CC1)N1CCc2[nH]c3ccccc3c2C1,i,i,1.5e-08,15%,8.4%
COc1ccc(OCC(=O)Nc2cccc(C(C)=O)c2)cc1,.,.,.,10%,-3.2%
Cc1c(NC(=O)CCN2C(=O)c3ccccc3C2=O)c(=O)n(-c2ccccc2)n1C,.,.,.,4%,1.1%
CC(C)c1nnc(NC(=O)CCC(=O)N2CCN(C3CCCCC3)CC2)s1,i,i,1.5e-09,21%,-1.6%
CC(C)COC(=O)C1C2C=CC3(CN(C(C)c4ccc(Br)cc4)C(=O)C13)O2 (configuration not stated),.,.,.,0%,-3.8%
O=C(NCCN1CCN(c2ccccc2)CC1)c1cccn2c(=O)c3cc(Cl)ccc3nc12,i,i,3.9e-08,?,4.0%
CCOC(=O)C1C(=O)CC(C)(O)C(C(=O)OCC)C1c1cccs1 (configuration not stated),.,.,.,23%,0.6%
CC(=O)Nc1ccc(SCC(=O)c2cc(C)n(Cc3cccs3)c2C)cc1,i,i,1.2e-08,?,-0.8%
COc1ccc2[nH]c(=O)c(C(c3nnnn3C(C)(C)C)N(Cc3ccco3)CC3CCCO3)cc2c1 (configuration not stated),i,i,4.8e-09,?,-1.3%
O=C(NCc1ccco1)c1cccc(-c2nnc(-c3ccccc3)o2)c1,i,i,1e-09,?,-0.5%
COc1ccc(S(=O)(=O)CCC(=O)O)cc1,i,i,1e-09,3%[11.4 µM],-0.6%
COc1ccc(NC(=O)C2C3C=CC(C3)C2C(=O)NCc2ccco2)cc1 (configuration not stated),i,i,1.5e-09,2%,0.7%
Cn1c(CSc2ncccn2)nnc1SCC(=O)N1CCCCC1,i,i,1.6e-09,-3%,1.2%
NS(=O)(=O)c1ccc(CNC(=O)NC2(c3ccccc3)CC2)cc1,.,.,.,5%,0.4%
Cc1ccc(N(CC(O)CN2CCOCC2)S(=O)(=O)c2ccc3ccccc3c2)cc1 (configuration not stated),.,.,.,23%,3.6%
CCCOC(=O)c1ccc(Oc2c(-c3ccc(OCC)cc3O)n[nH]c2C)cc1,i,i,3.5e-08,16%,0.7%
O=C1C(Cl)=C(N2CCOCC2)C(=O)N1CCc1ccccc1,i,i,1e-09,5%,3.0%
CC(C)c1nc2n[nH]c(N)c2c2c1CCC2,i,i,1.2e-08,.,.
Cc1ccccc1N1CCN(c2ncnc3c2cnn3Cc2ccc(Cl)cc2)CC1,i,i,2.8e-08,.,-5.1%
CCOC(=O)c1[nH]c2ccc(F)cc2c1NC(=O)C1=COCCO1,i,i,5.3e-09,-1%,0.0%
Cc1cc(=O)oc2cc(OC(C)C(=O)O)c(Cl)cc12 (configuration not stated),i,i,1e-09,-4%,2.9%
Cc1c(-c2ccco2)[n+](=O)c2c(n1[O-])CCC2,i,i,1e-09,-2%,1.0%
COc1cccc(C2=NOC(C(=O)Nc3cc(C)nn3-c3ccccc3)C2)c1OC (configuration not stated),.,.,.,15%,-1.5%
COc1ccc(NC(=O)C2CSC3c4ccccc4C(=O)N23)cc1 (configuration not stated),i,i,8.5e-08,.,.
CC(C)(C)Cn1nc(-c2ccc(Cl)cc2)c2c(N)ncnc21,.,.,.,3%,-1.4%
CCCC(c1nnnn1Cc1ccc(OC)cc1)N1CCN(c2ccccc2)CC1 (configuration not stated),i,i,1e-09,?,2.0%
C=CCn1c(=O)c2ccccc2n2c(SCC(=O)c3ccccc3)nnc12,i,i,1e-09,?,0.2%
CC(C)CN=C(N)N=C(N)N,i,i,1e-09,-1%[11.4 µM],3.3%[11.5 µM]
CCC(C)C1C(C#N)=C(N)OC2=C1C(=O)CC(C)(C)C2 (configuration not stated),.,.,.,?,-5.9%
CCC(Sc1nc2cc(OC)c(OC)cc2c2nc(C)nn12)C(=O)NCc1ccco1 (configuration not stated),i,i,2e-08,-4%,-0.7%
CN[C@@H](c1ccncc1)[C@@H](NC)c1ccncc1,i,i,1.3e-09,-4%[11.4 µM],-2.8%[11.5 µM]
COc1ccccc1Nc1nc(C2(C)CCC(=O)O2)cs1 (configuration not stated),i,i,2.8e-08,-1%,0.4%
CC(C)(C)CNCCO,i,i,4.6e-08,1%[11.4 µM],3.3%[11.5 µM]
COC(=O)Cn1c(=O)cnc2ccccc21,i,i,1.1e-09,1%,0.9%
N#Cc1c(/N=C/c2ccco2)sc2c1CCCCC2,i,i,1e-09,14%,1.1%
Cc1ocnc1C(=O)Nc1ccc(Cl)cc1,i,i,3.6e-09,-6%,1.6%
CCOc1ccc(NC(=O)CSc2nc3c(c(=O)n2C)SC(C)C3)cc1 (configuration not stated),.,.,.,19%,-3.6%
CC(C)(C)OC(=O)N1CCC[C@H]1c1nnc(SCc2c(Cl)cccc2Cl)o1,i,i,1.3e-09,?,-1.0%
CC12C(=O)N(CCC(=O)O)C(=O)C1C1C=CC2C1 (configuration not stated),i,i,1.8e-08,-3%,0.6%
Cc1nnc(SCC(=O)NCc2ccc(Cl)cc2)[nH]c1=O,i,i,1e-09,1%,-0.1%
CCOC(=O)CSc1cccc2cccnc12,i,i,2.4e-08,-1%,-1.9%

Further entries follow:
structure,Resorufin fluor,A488 fluor,A647 fluor,TSHR agonist,AID923
Cc1cc(=O)[nH]c(SC/C=C/c2ccccc2)n1,i,i,1e-09,19%,-4.7%
CN(C)c1ccc(-c2cncnc2N(C)Cc2ccco2)cc1,i,i,1.7e-08,.,2.7%
COc1ccc(NS(=O)(=O)c2cc(C(=O)O)ccc2C)cc1,i,i,1.1e-08,-2%,-2.8%
COc1ccc(NC(=O)c2cc(C)on2)cc1OC,i,i,8.6e-09,-10%,1.3%
CCn1c(SCC(=O)NCc2ccco2)nnc1C(C)C,i,i,2.8e-08,4%,2.3%
CCCCC(CC)COC(=O)c1ccc(N(C)C)cc1 (configuration not stated),.,.,.,-1%,0.6%
COC(=O)CCC(=O)Nc1ccc(Br)cc1,.,.,.,-7%,1.5%
Cc1ccc(C(=O)NC(C)(COc2nonc2C)COc2nonc2C)cc1,i,i,1e-09,?,-1.5%
O=C(NC1CCCC1)c1ccc(CS(=O)(=O)c2cccc(C(F)(F)F)c2)o1,i,i,8.7e-09,7%,-1.6%
COC(=O)C(C)Sc1ncnc2c1nnn2-c1ccc(F)cc1 (configuration not stated),.,.,.,15%,-0.4%
CC1Cc2nc(SCC(=O)NC3CCCCC3)n(C)c(=O)c2S1 (configuration not stated),i,i,1e-09,15%,1.1%
Cc1cnc(CNc2ncncc2-c2cccc(C#N)c2)cn1,i,i,3.5e-08,?,-0.4%
C=CCN1CC(c2nc3ccccc3n2Cc2ccccc2)CC1=O (configuration not stated),i,i,1e-09,25%,-0.1%
CNCCc1ccccn1,i,i,1.4e-09,0%,3.2%
CCN1C(=O)[C@H]2[C@H]3[C@H](O)[C@H](O)C/C(=N/OCC(C)C)[C@@H]3CC[C@@H]2C1=O,.,.,.,-3%[11.4 µM],3.8%[11.5 µM]
O=C(Nc1cccc(Cl)c1)Nc1nccs1,i,i,8.5e-09,-3%,-0.1%
CCOc1ccccc1NC(=O)CSc1nnc(Cc2cccn2C)n1-c1ccc(F)cc1,.,.,.,14%,-0.5%
COc1ccc(NC(=O)c2oc3ccccc3c2C)c(OC)c1,.,.,.,?,1.0%
O=C(Cn1cccc1C(=O)c1ccccc1)NCc1cccs1,i,i,1.9e-08,.,0.2%

4 compounds drawn at random from those above:
structure,Resorufin fluor,A488 fluor,A647 fluor,TSHR agonist,AID923
CCn1c(SCC(=O)NCc2ccco2)nnc1C(C)C,i,i,2.8e-08,4%,2.3%
COc1ccc(NS(=O)(=O)c2cc(C(=O)O)ccc2C)cc1,i,i,1.1e-08,-2%,-2.8%
COc1ccc(NC(=O)c2cc(C)on2)cc1OC,i,i,8.6e-09,-10%,1.3%
CCOc1ccccc1NC(=O)CSc1nnc(Cc2cccn2C)n1-c1ccc(F)cc1,.,.,.,14%,-0.5%
